gsp antag = antagonists of gsp mutant (McCune-Albright syndrome); 0.4% of 340,000 active; gsp-mutant cells, cAMP HTRF, 30 min; control for the full effect not named in the record; Potency, µM (series often up to 76.9 µM), inactives show at the highest dose activity change, negative = inhibition, most hits filed as inhibitors; active = falling curve of any shape with a large fitted effect; inconclusive = falling curve, mostly with a smaller effect; inactive = flat or rising curve; cell line not stated here;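 note: intracellular cAMP measured with PDE inhibitor Ro 20-1724 present during compound exposure; potency is the fitted concentration of half-maximal effect; % is set by controls: 0 for no effect and ±100 for the full control effect; nearly all actives have a fitted effect of over 65% in size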
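Cells in G418 medium, seeded 16-24 h, 37C; buffer exchange to DPBS + 1 mM CaCl2, 0.5 mM MgCl2, 0.05% BSA; cpds in DMSO + […] (300 uM stock), 30 min 37C; HTRF cAMP detection.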
Sfp PPTase inh = inhibitors of Bacillus subtilis Sfp phosphopantetheinyl transferase; Q9F4F7; Biochemical Sfp PPTase activity, qHTS; Potency, µM, without a hit: max response, negative = inhibition, actives largely listed as inhibitors; 3.5% of 310,000 active; AID 1490; active = well fitted inhibition curve with a large enough effect; inconclusive = small, poorly fitted or top-dose-only effect, or another doubt; inactive = no such curve, though single readings can be large or run the other way;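 note: the enzyme is Sfp with the accession as filed and its product quenches rhodamine fluorescence; potency is the fitted concentration of half-maximal effect; 0% = enzyme reaction without inhibitor and -100% = no enzyme wells; top concentration of the series not given in the record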
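After 15 min at room temperature with compound, 15 nM Sfp received 5 uM rhodamine-CoA plus 12.5 uM BHQ-2-ybbR (50 mM Hepes pH 7.6, 10 mM MgCl2). Rate came from the fluorescence difference over 30 min, ex 525/em 598 nm.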
TRPML1 blocker = inhibitors of human TRPML1 channel | TRPML1-inducible cells, Ca2+ dye fluorescence, FDSS; active compounds read low; inhibition of EC80 agonist-evoked calcium signal | activity change, negative = inhibition, % (concentration not given with the values) | 0.02% of 390,000 active; in the data active means activity change below about -50%; inconclusive means about -30% to -50%; inactive means above about -30%;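 note: stimulus is agonist 54-4 at its EC80 concentration; % is set by controls: 0 for no effect and ±100 for the full control effect; the text of the record puts the active cut at -80%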
Target sequence (Q9GZU1 whole entry, looked up): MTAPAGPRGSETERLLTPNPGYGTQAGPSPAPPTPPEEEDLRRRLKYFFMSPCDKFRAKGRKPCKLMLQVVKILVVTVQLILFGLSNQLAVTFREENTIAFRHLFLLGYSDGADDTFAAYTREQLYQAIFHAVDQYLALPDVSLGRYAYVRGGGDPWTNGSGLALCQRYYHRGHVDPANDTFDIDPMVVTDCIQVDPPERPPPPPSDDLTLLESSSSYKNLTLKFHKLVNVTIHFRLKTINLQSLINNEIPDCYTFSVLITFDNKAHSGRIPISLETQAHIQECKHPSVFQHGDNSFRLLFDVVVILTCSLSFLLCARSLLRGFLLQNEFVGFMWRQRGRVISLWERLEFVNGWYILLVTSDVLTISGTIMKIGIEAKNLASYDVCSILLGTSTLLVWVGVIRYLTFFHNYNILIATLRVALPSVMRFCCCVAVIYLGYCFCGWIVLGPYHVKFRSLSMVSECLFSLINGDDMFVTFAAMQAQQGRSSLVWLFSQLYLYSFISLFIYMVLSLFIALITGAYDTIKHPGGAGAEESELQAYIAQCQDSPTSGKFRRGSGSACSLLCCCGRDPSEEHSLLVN
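Tet-induced TRPML1-DL cells loaded with Ca8 no-wash calcium dye were read kinetically on FDSS. Compound addition was followed by EC80 agonist 54-4 (4 uM final); inhibition was read over 110 s.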
TRPV1 PAM = potentiators of human vanilloid receptor 1 (TRPV1); Q8NER1; potentiation, % at 8.33 µM; AID 540277; TRPV1-expressing cells, Fluo-8 calcium influx, capsaicin EC20 potentiation; host cell line not named in the record; control for the full effect not named in the record; 0.02% of 320,000 active; active means potentiation above 80%; inconclusive means 30% to 80%; inactive means below 30%; note: 0% is about no effect
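Cells expressing TRPV1 were dye-loaded with Fluo-8 and read kinetically: 10 s baseline, 3 min after compound (agonist portion), then 2 min after EC20 capsaicin (allosteric enhancer portion). Calcium-bound dye fluorescence at 480/520 nm.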
ClpP mod = qHTS Assay for Activators of ClpP; purified B. subtilis ClpP, FRET peptide cleavage, 20 min; Potency, µM (titrated, usually from 57.5 µM), for inactives: top-dose activity change, negative = active; 1.9% of 340,000 active; AID 651965, 2013; active = well fitted falling curve with a large enough effect; inconclusive = small, poorly fitted or top-dose-only effect; inactive = no such curve, though single readings can be large or run the other way; note: potency is the fitted concentration of half-maximal effect; the source files actives as falling curves though it sought activators and does not explain the sign; nearly all actives have a fitted effect of over 65% in size; many hits overshoot -100%
Target sequence (P80244 whole entry, looked up): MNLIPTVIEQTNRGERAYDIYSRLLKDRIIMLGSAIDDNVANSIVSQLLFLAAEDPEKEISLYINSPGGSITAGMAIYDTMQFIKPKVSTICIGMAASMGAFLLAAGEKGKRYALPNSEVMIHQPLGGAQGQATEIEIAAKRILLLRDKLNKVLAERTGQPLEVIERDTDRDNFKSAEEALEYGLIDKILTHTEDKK
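FRET quenching reversal measured ClpP activation: 10 microg/mL B. subtilis ClpP at pH 8 with the FRET-FV decapeptide, read at 430 nm after 320 nm excitation. The 20-min minus 0-min signal was scaled between DMSO/no-enzyme wells and ADEP (5.8 microM final).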
gsp agonist = activates gsp, the McCune-Albright syndrome mutation. gsp mutant cells, cAMP HTRF, 30 min; control for the full effect not named in the record. Potency, µM (top dose mostly 76.9 µM), for the others: at the highest dose activation (cAMP increase), usual class: activators. 0.13% of 340,000 active. AID 624287; active = well fitted activation curve with a large enough effect; inconclusive = small, poorly fitted or top-dose-only effect, or another doubt; inactive = no such curve, though single readings can be large or run the other way; cell line not stated here;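 note: phosphodiesterase inhibitor Ro 20-1724 added with compounds to block cAMP breakdown; potency is the fitted concentration of half-maximal effect; nearly all actives have a fitted effect of over 60% in size; about a fifth of the inactives were tested at one dose only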
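Cells stably selected in G418 were plated at 2000/well, grown 16-24 hr, then given compounds in DMSO with the PDE inhibitor […] (300 uM solution added) for 30 min at 37C; cAMP was read by HTRF.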
Menin-MLL FL inh = inhibitors of human menin-MLL interaction, wild-type MLL peptide; Fluorescence polarization, fluorescein-MLL peptide displacement from menin; FP activity change, % at 61.4 µM; 290,000 tested, under 10 active; inconclusive = falling polarisation curve, or a change in total fluorescence; inactive = total fluorescence flat and polarisation flat or rising; no compound was filed as active; the % refers to the polarisation; negative = inhibition;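 note: % of control where 0% means no effect; inhibitors lower the polarisation; unlabelled MLL peptide was the positive control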
* hit, by the source's call; ? = inconclusive; . = not tested or not shown; & = joins results of further samples; [ ] = remark or other dose.

Structure,gsp antag,Sfp PPTase inh,TRPML1 blocker,TRPV1 PAM,ClpP mod,gsp agonist,Menin-MLL FL inh
Cc1ccc(/C=N/n2c(-c3ccc(Cl)cc3)n[nH]c2=S)s1,-1%,-3%,24,24,.,-34%[inhibitor],1.1
Cc1occc1-c1nnc(SCC(=O)c2ccccc2)n1CC1CCCO1 (stereo not given),-11%,-7%,-8,21,-0.3%,-1%,1.6
Cn1nccc1C(=O)NC(=S)Nc1sc2c(c1C#N)CCCCC2,1%,-17%,0,5,1.9%,2%,0.8
O=C(CN(C(=O)CNC(=O)c1ccco1)c1ccc(Cl)c(Cl)c1)NC1CCCCC1,6%,-2%,-1,25,-0.1%,-23%,-3.7
CCOC(=O)c1sc(NC(=O)c2ccccc2OCC)nc1C,7%,12%,-5,19,0.3%,-2%[15.4 µM],-0.1
Cn1c(NCCCO)nc2c(c1=O)C1(CCCCC1)Cc1ccccc1-2,-3%,1%,24,.,28µM*,-18%,4.4
CSc1ccccc1C(=O)Nc1ncc(C)s1,-3%,12%,28,?,-0.6%,3%,3.2
COc1ccc(C(CNC(=O)c2cccc(S(=O)(=O)N3CCCCC3)c2)N2CCCC2)cc1 (stereo not given),7%,.,30,-18,-2.0%,0%,.
CCn1c(SCC(=O)N(C)C2CCS(=O)(=O)C2)nnc1-c1cccs1 (stereo not given),12%,11%,6,2,-4.3%,?,-2.4
C=CCc1ccc(OCC(O)COCC)c(OC)c1 (stereo not given),-8%,6%,3,-6,-1.2%,-1%,2.8
COCCN(CCOC)S(=O)(=O)c1ccc(C(=O)Nc2ccc([N+](=O)[O-])cc2OC)cc1,1%,45µM*,-8,-2,.,29%,-1.1
CCOc1ccc(C2=Nn3cnnc3SC2)cc1,8%,7%,-5,2,-4.1%,4%,-0.5
O=C(Nc1ccc(NC(=O)c2sc3ccccc3c2Cl)cc1Cl)c1ccco1,18%,-18%,2,0,-9.4%,?,2.8
CCC(=O)c1ccc(OCc2ccc(C(=O)OC)o2)c(OC)c1,2%,4%,-9,20,-5.8%,0%,3.1
CCN1CCN(C(=S)Nc2ccccc2Cl)CC1,9%,-2%,2,-7,-1.9%,11%,3.7
Cc1cc(Cl)nc2c(C(C)C)cccc12,9%,19%,3,3,-0.3%,17%,2.1
CCOc1ccc(NC(=O)Nc2ccc3nsnc3c2)cc1,8%,18%,2,-15,1.4%,-1%,2.3
CCSc1nnc([C@H](Cc2c[nH]c3ccccc23)NC(=O)OC(C)(C)C)o1,-4%,11%,5,1,1.7%,-29%,3.8
CCOC(=O)c1cccc(NC(=O)c2cc3sccc3n2C)c1,35µM*,1%,16,-3,-8.1%,-2%,1.2
CCC(C)(C(=O)NC1CCCCC1)N(Cc1cccs1)C(=O)CC1NC(=O)NC1=O (stereo not given),12%,12%,39,8,-1.5%,5%,3.4
O=C(NCC1CCCO1)c1onc(CSc2ccc(F)cc2)c1C(=O)O (stereo not given),-1%,16%,8,-3,-0.1%,.,0.4
CCN1CCN(CC(=O)NC2CCCC2)C(=O)C1=O,5%,18%,-13,9,0.4%,-54%[inhibitor],1.6
CN(C(=O)CSc1ncnc2sccc12)C1CCCCC1,0%,.,27,14,-2.4%,17%,.
O=[N+]([O-])c1cccnc1N1CCOCC1,5%,1%,24,8,-0.2%,-35%[inhibitor],4.8
C/[N+]([O-])=C\CC(=O)c1ccc(-c2ccccc2)cc1,16%,-15%,-3,-8,.,-1%[15.4 µM],-0.5
Cc1cc(C)c2sc(N(CCN(C)C)C(=O)c3ccc4ccccc4c3)nc2c1,4%,-30%,22,1,-4.0%,-24%,0.1
CC1CC(=S)Nc2ccccc2N1C(=O)Nc1ccccc1 (stereo not given),7%,-5%,2,-27,-1.1%,0%[15.4 µM],2.9
CCN(CC(=O)Nc1ccc2c(c1)OCCO2)C(=O)COc1cc(C)ccc1Cl,-2%,.,6,-1,0.7%,-10%[15.4 µM],.
N=c1c2c(-c3ccccc3)c(-c3ccccc3)oc2ncn1Cc1ccco1,-35%,-5%,14,12,?,-2%,8.0
C[C@H](NC(=O)N1CCn2c1nc1ccccc12)C(=O)NC1CCCCC1,-5%,-1%,20,-5,-0.4%,-3%,.
CCOC(=O)CC(NC(=O)CCS(=O)(=O)c1ccc2c(c1)n(C)c(=O)c(=O)n2C)c1ccc(C)cc1 (stereo not given),-15%,22%,-5,-15,4.2%,?,.
Cc1cccc(C(=O)N/N=C2\CS(=O)(=O)N(C)c3ccsc32)c1,-5%,29%,-10,1,-1.7%,-1%,3.0
CC(C)c1cccc(-c2ccc3c(c2)S(=O)(=O)c2cccc(C(=O)NC4CCCC4)c2C3=O)c1,2%,.,1,.,-1.3%,13%,.
CCOc1ccccc1OCCCC(=O)N1CCN(S(=O)(=O)c2cccc(F)c2)CC1,-13%,2%,-11,-14,-1.1%,-59%[inhibitor],5.2
N#Cc1c(N2CCN(C(=O)c3ccccc3)CC2)nc(-c2ccccc2)c2c1CCCC2,-22%,?,30,-4,28µM*,-20%,2.9
Cc1ccccc1OCc1nnc(SCCN2CCCC2)n1-c1ccccc1,.,2%,8,-6,.,-6%[15.4 µM],-4.6
COc1cc(CN2c3ccccc3C(=O)CS2(=O)=O)cc(OC)c1,-18%,.,-14,.,-0.2%,.,.
CCCCNC(=O)CCn1nc(-c2ccc(C)cc2)c2ccccc2c1=O,-3%,-9%,28,-12,-2.1%,53%,-6.0
Cc1ccc(/C=N/NC(=O)CCn2nc(C)cc2C)c(C)c1,8%,-3%,-15,-18,.,2%[15.4 µM],0.8
CCCCOC(=O)CCc1nc2ccccc2[nH]c1=O,6%,11%,-3,1,?,?,4.5
Cn1c(SCc2c(Cl)cccc2Cl)nc(C(F)(F)F)cc1=O,?,-9%,-5,4,-0.6%,18%,4.4
CCOC(=O)N1CCN(C(=O)COC(=O)c2ccc(S(=O)(=O)N(CC)CC)cc2)CC1,-6%,.,-4,-1,0.8%,-5%,.
O=C(CSc1nc(-c2ccccc2Cl)ns1)c1ccc(Cl)cc1,-7%,4%,3,16,-2.3%,-25%,7.3
Clc1ccc(C2=NNC(=NCC3CCCO3)SC2)cc1 (stereo not given),-5%,-17%,12,-5,.,14%,6.9
Cc1cccc(C(=O)NCC(=O)NCCCSc2ccccc2)c1,-15%,.,4,1,1.2%,8%,.
CCOC(=O)c1[nH]c2ccc(OC)cc2c1NC(=O)CCN1CCCC(C)C1 (stereo not given),3%,2%,-5,-2,32µM*,10%,1.4
O=C(CSc1nc(O)c(Cc2ccccc2)c(=O)[nH]1)c1ccccc1,1%,24%,7,?,.,5%[15.4 µM],-0.7
CC(C)=CCCC(C)=CCN1C(=O)CN(C)C1=O,.,.,-2,.,2.2%,0%,.
COc1ccc(OCCNC(=O)c2cc(C3CC3)nc3c2cnn3C(C)C)cc1,-12%,.,-6,-15,-1.3%,-1%,.
NC(=O)c1cc(Cl)ccc1OCC(=O)Nc1ccc2c(c1)OCO2,-7%,.,-12,5,-5.8%,-5%,.
CCN1CCN(CCCNC(=O)CS(=O)(=O)Cc2nc(-c3cccc(OC)c3)oc2C)CC1,13%,14%,-18&3,?,-9.2%&-4.6%,?,-3.4
COc1ccccc1C(=O)NCCSCc1ccccc1Cl,-12%,-2%,22,-16,7.1µM*,1%[15.4 µM],0.6
CC(C)Cc1cc(C(=O)Nc2ccc(F)cc2F)no1,1%,-5%,2,-11,-0.3%,1%,1.1
Cc1ccc(SCCNC(=O)/C=C/c2ccc([N+](=O)[O-])cc2)cc1,?,-5%,-2,-13,3.5%,-64%[inhibitor],13
O=C(c1ccc(CS(=O)c2cccc(Cl)c2)o1)N1CCN(C2CCCCC2)CC1 (stereo not given),-1%,11%,-3,23,-1.4%,8%,.
COc1ccc(NC(=O)CN(C)C(=O)c2ccccc2OCC(=O)Nc2cccc(C(F)(F)F)c2)cc1,-8%,.,18,2,.,6%[15.4 µM],.
O=S(=O)(NC1CCc2ccccc21)c1ccccc1 (stereo not given),.,.,-13,.,1.2%,4%,.
Cc1csc(SCc2ccccc2C(=O)O)n1,-21%,13%,7,1,-0.7%,3%,1.1
CCOc1cc(CNC)ccc1OCC(=O)NC(C)(C)C,?,24%,-5,4,.,15%[15.4 µM],0.5
Cc1ccc(NC(=S)NNC(=S)Nc2ccc(C)cc2)cc1,-16%,.,-2,.,0.1%,-57%[inhibitor],.

Following part
Structure,gsp antag,Sfp PPTase inh,TRPML1 blocker,TRPV1 PAM,ClpP mod,gsp agonist,Menin-MLL FL inh
CN(Cc1ccccc1)C(=O)CSc1nc2c(c(C(F)(F)F)n1)CCc1ccccc1-2,-11%,.,34,.,-15%,10%,.
COc1ccccc1NC(=O)C(C)NC(c1ccccc1)c1ccccc1 (stereo not given),-12%,-1%,-7,-9,-5.5%,-6%[15.4 µM],0.4
CC(=O)N(C)c1ccc(N=Cc2cc3c(cc2[N+](=O)[O-])OCO3)cc1,-10%,.,12,.,.,12%[15.4 µM],.
CC[N+](CC)(CC#Cc1ccccc1)CC#Cc1ccccc1,7%,15%,-4,0,.,1%,-2.8
C/C(=N\NC(=O)c1c([N+](=O)[O-])c(C)nn1C)c1ccc(NC(=O)C2CCCC2)cc1,8%,11%,0,3,-2.2%,-51%[inhibitor],.
O=C(C=Cc1cccnc1)c1ccccc1,-10%,.,5,.,-1.4%,-6%,.
COc1ccc(OC)c(S(=O)(=O)ON2C(=O)c3ccccc3C2=O)c1,-19%,-101%,-2,0,.,-45%,3.6
O=C(NCC(=O)N(c1cccc(F)c1)C(C(=O)NCC1CCCO1)c1ccccc1)c1ccco1 (stereo not given),-12%,17%,-6,25,-0.5%,3%,2.7
O=C(CSCc1ccc([N+](=O)[O-])cc1)N/N=C/c1ccncc1,9%,12%,-15,-11,.,6%[15.4 µM],0.3
